Source: PubChem (Fisher Drug Discovery Resource Center)
NPYLR7 agonist: agonists of mosquito NPYLR7 receptor, primary screen, cell-based, Aedes aegypti, calcium fluorescence, mosquito biting behavior. HEK293T NPYLR7/Galpha15, GCaMP6s calcium fluorescence. 270,000 compounds, 0.15% hits. Aedes aegypti neuropeptide Y-like receptor 7 (NPYLR7). activation, % at 10 µM; in the data active = activation above about 40%;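 note: 0% = vehicle and 100% = reference agonist at the receptor; some compounds past the cut are filed as inactive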
NPYLR7 agonist max-min: also measured in NPYLR7 agonist; calls as there; activation, %; measured here: Max-Min RFU normalised activation; some inactives read as strong as hits;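 span of the calcium signal over five minutes; 0% = vehicle and 100% = native peptide agonist; compound fluorescence can raise it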
* marks the source's active call; other numbers are inactive results; & = joins results of further samples.

SMILES	NPYLR7 agonist	NPYLR7 agonist max-min
Cc1cc(C)cc(NC(=O)c2cccn(OCc3ccccc3F)c2=O)c1	3	1
CCNC(=O)O[C@H]1C(=O)N(C)C2(CCN(S(=O)(=O)c3cccs3)CC2)[C@@H]1C(=O)NC	26	31
Cc1ccc(NC(=O)CSc2nnc(CCC(=O)O)c(=O)[nH]2)cc1C	9	6
CCCCCn1c(N2CCN(CC)CC2)nc2c1c(=O)[nH]c(=O)n2C	-1	-1
O=C(Nc1ccc2c(c1)CN(C1CCC1)CC2)C1(c2ccccc2)CC1	0	-2
Cc1ccc2nc(-c3ccc4c(c3)OCO4)c(NC3CCCCC3)n2c1	-5&2	-4&3
COc1ccc(N2CCN(C(=O)c3sc4ncnc(NC[C@H]5C[C@@H]6C=C[C@H]5C6)c4c3C)CC2)cc1	30	20
COc1ccc(C=C2N=C(c3ccc4c(c3)OCO4)OC2=O)cc1C	-6	-8
CCC(=O)Nc1ccc(C)cc1-c1cc(OC)c(OC)c(OC)c1	-2	-6
CCOC(=O)CSc1nnc2n(Cc3ccccc3)c(=O)c3c(n12)-c1ccccc1CC3(C)C	4	-1
CNc1oc(-c2ccc(F)cc2)nc1C#N	1	7
CCNC(=O)CN1CCN(S(=O)(=O)c2cc(OC)c(OC)cc2F)CC1	3	2
COCCCNc1nc2nonc2nc1N1CCCN(Cc2cccs2)CC1	2	-4
Cc1ccccc1-n1c(SCc2ccc(C(=O)Nc3ccc4c(c3)OCO4)cc2)nnc1-c1ccccc1Cl	-9	-7
COc1ccc(Cl)cc1NS(=O)(=O)c1ccc(Br)s1	-2	-3
Cc1nc(SCc2ccc(C(=O)NCc3ccccc3)cc2)nc(N2CCN(c3ccccc3Cl)CC2)c1C	4	9
CCn1ncc(C(=O)NCCC(=O)Nc2ccc(C)cc2)c1C	17	9
Cc1ccc(Cc2nsc(N3CCN(C(=O)Nc4ccccc4Br)C(C)C3)n2)cc1 (stereo not drawn)	20	17
O=C(NC1CCC(C(F)(F)F)CC1)c1ccc(S(=O)(=O)C(F)F)cc1 (stereo not drawn)	7	3
O=C(c1ccccn1)N1CCC2(CCCN(Cc3ccccc3F)C2=O)C1 (stereo not drawn)	10	2
COc1ccc(N2C(=O)C(=Cc3ccc(OC)c(OC)c3)SC2=S)cc1	-4	-7
Clc1cc(CSc2nnnn2C2CCCC2)cc2c1OCCO2	0	5
COc1ccc2c(c1)CCCN2CC(=O)Nc1sccc1C#N	2	0
COc1ccc(-n2c(=O)[nH]c3c(C(N)=O)nc(C4CCCCC4)nc32)c(OC)c1	-8	-13
COc1cc(C2CC(c3cc(Cl)ccc3O)=NN2)ccc1O (stereo not drawn)	26	23
(more compounds)
SMILES	NPYLR7 agonist	NPYLR7 agonist max-min
O=C(CCN1CCc2ccccc21)NCc1cnn2ccccc12	6	4
O=C(C1=CC=CN2CCS(=O)(=O)N=C12)N1CCN(Cc2ccc3c(c2)OCO3)CC1	0	3
CCc1ccc(-c2cc3c(SCC(=O)Nc4ccccc4F)nccn3n2)cc1	1	0
O=C1CN(C(=O)NC(Cc2ccccc2)C(=O)O)c2ccccc2N1 (stereo not drawn)	-9	-10
O=C(Nc1ccccc1Oc1ccccc1)N1C[C@@H]2CNC[C@]2(C(=O)O)C1	15	8
COc1cccc(CN(Cc2nc(C(=O)O)co2)C(C)c2ccccc2)c1OC (stereo not drawn)	6	8
COc1ccc(C(=O)NC2CCC(NC(=O)[C@H]3CCCN3C(=O)c3cccc(Br)c3)CC2)cc1 (stereo partly drawn)	9	21
CC1=NN(C(=O)Cc2ccccc2)C(C)(C)C1	-5	-10
O=C(Cc1ccon1)NC1CC2(CCC2)Oc2ccccc21 (stereo not drawn)	8	6
C=CCSc1nnc2c(n1)OC(c1ccncc1)Nc1ccc(Br)cc1-2 (stereo not drawn)	1	-1
CC(C)c1ccc(NC2CCCN(c3ncccn3)C2)cc1 (stereo not drawn)	4	1
Cc1cc(N2CCN(Cc3nc(-c4ccc(Cl)cc4)oc3C)CC2)cc(C)n1	-8	-13
CCN(CC)Cc1c(O)cc(C)c2c1O/C(=C\c1ccncc1)C2=O	8	3
O=C1NCCCCC1Sc1nccn1-c1cccc(Cl)c1 (stereo not drawn)	4	0
O=C1NC(C(=O)N2Cc3cnc(-c4ccccc4)nc3C2)CO1 (stereo not drawn)	15	7
Cc1ccnc(SCc2cc(=O)c(OC(=O)COc3ccccc3)co2)n1	-9	-2
COc1ccc(Br)cc1C1Nc2ccccc2N=C2CC(C)(C)CC(=O)C21 (stereo not drawn)	1	3
CC(C)NC(=O)CC1(C)N=C(c2cccc(C(F)(F)F)c2)N(C)O1 (stereo not drawn)	10	6
Cc1cccc(CN(Cc2ccco2)CC(O)COc2ccccc2)c1 (stereo not drawn)	22	22
COc1cc2c(cc1OC)C(c1cccs1)N(CC(=O)Nc1ccc(C)c([N+](=O)[O-])c1)CC2 (stereo not drawn)	0	21
COC(=O)[C@@H](NC(=O)c1cnc(N(C)C)nc1C)C1CC1	26	19
Cc1ccc(CC(C#N)Sc2n[nH]c(C(C)(C)C)n2)cc1 (stereo not drawn)	9	6
Cc1cccc(NC(=O)CC(=O)N(C)Cc2nccn2Cc2ccccc2)c1C	14	9
Cc1nc2ncnn2c(N2CCN(C(=O)c3c(Cl)cccc3Cl)CC2)c1Cc1ccccc1	25	13
O=C(O)c1cc(-c2ccc3c(c2)OCO3)nc2c1cnn2Cc1ccncc1	-5	-6
Next compounds
SMILES	NPYLR7 agonist	NPYLR7 agonist max-min
COc1ccccc1-c1nc2ccc(C)cn2c1NC(=O)C12CC3CC(CC(C3)C1)C2	-3	2
CC1CC1COC(=O)N1CCC2(CC1)C(=O)NCN2c1ccccc1 (stereo not drawn)	-7	-15
Cc1nc(C(F)(F)F)ccc1C(=O)NC1CC(C(F)(F)F)CC(C(F)(F)F)C1 (stereo not drawn)	-3	-5
Cc1nc(Cc2nnc(SCC(=O)c3ccc(Br)s3)o2)cs1	2	8
N#Cc1ccccc1-c1ccc(COc2coc(CN3CCN(C(=O)c4ccc(F)c(C(F)(F)F)c4)CC3)cc2=O)cc1	4	1
COc1ccc(CCN(C)C(=O)c2csc(CSc3nnc(-c4cccs4)n3-c3cccc(C)c3)n2)cc1OC	6	3
Cc1cccc(N2CCN(C(=O)c3cn(Cc4ccccc4F)nn3)CC2)c1C	3	2
CN(CCCC(=O)Nc1ccccc1O)S(=O)(=O)c1cccs1	-4	-4
Cc1cc(C)nc(NC(=O)NCCCSc2nc(C)cc(C)n2)n1	6	3
CCOc1ccc(N(CC(=O)NCC2CCCO2)S(C)(=O)=O)cc1 (stereo not drawn)	-4	-7
CSC1CCCCN(Cc2ccc(C(N)=O)cc2)C1 (stereo not drawn)	-6&0	-6&-1
CCOC(=O)C1=C(C)NC(C)=C(C(=O)OCC)C1C(=O)OCC(=O)NC(CC)CC	0	5
Cc1nn(-c2ccccc2)c(-c2ccccc2)c1C(=O)NCC(C)C	20	27
CCSc1nnc2c3ccccc3n(C)c2n1	0	-4
CC1(C)CC(n2c(NCCO)nc3c(c2=O)C2(CCCCC2)Cc2ccccc2-3)CCO1 (stereo not drawn)	1	1
C=CCN(C(=O)c1ccc(=O)[nH]n1)C(C)C(C)C (stereo not drawn)	4	2
CCOc1ccccc1N1C(=O)C2C(c3ccccc3)C=CC(c3ccccc3)C2C1=O (stereo not drawn)	6	5
COCc1nc(C)nc(N2CCN(C(=O)C3CCC3)CC2)c1Cc1cccc(C)c1	-12	-6
O=C(c1ccco1)N1CCC(n2cnc3cc(C(F)(F)F)ccc32)CC1	7	17
CC(C)N=c1ccccn1C(=O)C(C)Oc1ccccc1C#N (stereo not drawn)	-3	-6
CCN(C)c1cc(Oc2ccc(F)c(F)c2)ncn1	-4	-1
Cc1ccc(N2C=CCC(C(N)=O)=C2)cc1	14	7
COc1cc(CN2CCn3nc(C(=O)NC4CCCCNC4=O)cc3C2=O)cc(OC)c1 (stereo not drawn)	11	2
C#CCN(Cc1nc2ncc(Br)cc2[nH]1)Cc1ccco1	11	7
COc1ccc(-n2c(SCC(=O)Nc3cc(C)on3)nc3c(c2=O)SCC3)cc1OC	9	6
Continuation.
SMILES	NPYLR7 agonist	NPYLR7 agonist max-min
Cc1ccc(F)cc1S(=O)(=O)N1CCC(n2nc(-c3ccccc3)cc2-c2ccccc2)CC1	15	10
Cc1ccc(CN(Cc2ccc3c(c2)OCO3)CC(O)COCc2ccccc2)o1 (stereo not drawn)	2	4
Nc1nnc(SCc2ccc(Cl)c(Cl)c2)s1	15	16
CCC(SCC(=O)N1CCCC(NC(C)=O)C1)c1ccccc1 (stereo not drawn)	1	-1
Cc1nn(C)c(C)c1-c1ccnc(NC(C)c2ccc(F)cc2)n1 (stereo not drawn)	-7	-10
CC1=C(C(=O)OC2CCCC2)C(c2ccc([N+](=O)[O-])cc2)NC(=O)N1C (stereo not drawn)	-1	-6
CCn1ccnc1CN1CCCN(C(=O)C(C)N2CCOCC2)CC1 (stereo not drawn)	-1	-9
Cc1ccc(-c2nc(C)c(C(C)C)c(N3CCN(C(=O)C(C)(C)CCl)CC3)n2)cc1	-7	-1
CCN1CCC(CCNC(=O)c2cccnc2SC2CCCC2)CC1	-2	-1
CC(=O)c1ccc(S(=O)(=O)N2CCN(c3ccc4nncn4n3)CC2)cc1	0	5
COc1ccc2nc(-c3c(OC)ccc4ccccc34)n(Cc3ccccc3)c(=O)c2c1	5	1
O=C(NCc1cccc(C(F)(F)F)c1)c1ccccc1N1CCC(NS(=O)(=O)c2ccccc2)CC1	-2	3
COc1ccc(-c2n[nH]c(=S)n2N=Cc2ccc(O)c(OC)c2)cc1	3	4
Cc1noc(C2CCCN(CC(=O)N(C)Cc3ccccc3)C2)n1 (stereo not drawn)	17	11
COc1ccc(OCCCOc2ccc([N+](=O)[O-])cc2Cl)cc1	-6	2
Cc1cc(NC(=O)C(C)Nc2cccc(Cl)c2C)no1 (stereo not drawn)	1	-1
CNC(=O)CN1CCC(NC(=O)N2CCCC2c2cccn2C)CC1 (stereo not drawn)	-11	-9
O=c1[nH]c2c(cc1C1=NN(c3ccccc3)C(c3ccco3)C1)CCCC2 (stereo not drawn)	-1	-6
Cc1ccccc1CNC(=O)Cn1c(=O)[nH]c(=O)c2ccccc21	4	2
Cc1ccc(CSCCNC(=O)c2cc(S(N)(=O)=O)ccc2C)cc1	7	4
COc1cccc(C(=O)N(C)CC2CCCN(CCc3ccccc3F)C2)c1OC (stereo not drawn)	6	6
O=P(Nc1cccc(Cl)c1)(c1ccccc1)c1nc2c(s1)CCCC2 (stereo not drawn)	-1	11
Cc1ccccc1NC(=O)C(=O)c1ccc(C2CCCCC2)cc1	-1	-3
CC(=O)Nc1ccc(CN2CCC3(CCCN(Cc4cccc(C)c4)C3)C2)cc1 (stereo not drawn)	6	1
O=C(Nc1cnn(C23CC4CC(CC(C4)C2)C3)c1)c1nn2cccnc2c1Cl	0	-2
Following part
SMILES	NPYLR7 agonist	NPYLR7 agonist max-min
COc1ccc(C(=O)Nn2cnc3c(cnn3C(C)(C)C)c2=O)cc1	2	-1
CCOc1ccc(-n2nnc(C(=O)Nc3ccccc3)c2C)cc1	-7	-9
CCC(C)N(Cc1ccc(OS(=O)(=O)c2cccc(C(F)(F)F)c2)cc1)C(=O)Nc1ccc(Cl)cc1 (stereo not drawn)	-9	3
C=CCN1C[C@@H]2C[C@@H](C(=O)NC)N(C(=O)c3cc(C)oc3C)c3cccc(c32)S1(=O)=O	-2	2
C=CCn1nc(C)c(C(=O)N2CCN(C(=O)c3ccccc3)CC2)c1C	-3	-8
CN(Cc1ccccc1)C(=O)c1nn(-c2ccc(F)cc2)c2c1CCC2	2	0
O=C(Nc1sc2c(c1C(=O)N1CCOCC1)CCCC2)C1CCCC1	2	4
CCC(C)SCC(=O)N1CCC(C)CC1 (stereo not drawn)	12	5
COc1ccc(CCNC(=O)c2c(C)c3c(n2Cc2ccc(F)cc2F)CCCC3)cc1OC	29	32
CCC(C(=O)N1CCN(c2nc(C3CCOCC3)nc3c2c(C)nn3-c2ccccc2)CC1)c1ccccc1 (stereo not drawn)	9	14
CCOC(=O)c1c(NC(=O)c2ccc([N+](=O)[O-])o2)c(-c2cccc(F)c2)cn1C	8	7
Cc1cccc(Nc2ncnc3c2nnn3C)n1	12	7
Cc1ccccc1-c1csc(C(C)(O)c2cccnc2)n1 (stereo not drawn)	5	2
O=C1c2ccccc2C(=O)C1C1=NCC(c2ccccc2)O1 (stereo not drawn)	-10	0
COC(=O)C1CCN(CC(=O)Nc2cc(C3CCCC3)nn2-c2ccccc2)CC1	-2	-3

14 consecutive records out of the list so far:
SMILES	NPYLR7 agonist	NPYLR7 agonist max-min
CCOc1ccc(-n2nnc(C(=O)Nc3ccccc3)c2C)cc1	-7	-9
CCC(C)N(Cc1ccc(OS(=O)(=O)c2cccc(C(F)(F)F)c2)cc1)C(=O)Nc1ccc(Cl)cc1 (stereo not drawn)	-9	3
C=CCN1C[C@@H]2C[C@@H](C(=O)NC)N(C(=O)c3cc(C)oc3C)c3cccc(c32)S1(=O)=O	-2	2
C=CCn1nc(C)c(C(=O)N2CCN(C(=O)c3ccccc3)CC2)c1C	-3	-8
CN(Cc1ccccc1)C(=O)c1nn(-c2ccc(F)cc2)c2c1CCC2	2	0
O=C(Nc1sc2c(c1C(=O)N1CCOCC1)CCCC2)C1CCCC1	2	4
CCC(C)SCC(=O)N1CCC(C)CC1 (stereo not drawn)	12	5
COc1ccc(CCNC(=O)c2c(C)c3c(n2Cc2ccc(F)cc2F)CCCC3)cc1OC	29	32
CCC(C(=O)N1CCN(c2nc(C3CCOCC3)nc3c2c(C)nn3-c2ccccc2)CC1)c1ccccc1 (stereo not drawn)	9	14
CCOC(=O)c1c(NC(=O)c2ccc([N+](=O)[O-])o2)c(-c2cccc(F)c2)cn1C	8	7
Cc1cccc(Nc2ncnc3c2nnn3C)n1	12	7
Cc1ccccc1-c1csc(C(C)(O)c2cccnc2)n1 (stereo not drawn)	5	2
O=C1c2ccccc2C(=O)C1C1=NCC(c2ccccc2)O1 (stereo not drawn)	-10	0
COC(=O)C1CCN(CC(=O)Nc2cc(C3CCCC3)nn2-c2ccccc2)CC1	-2	-3

Only part of the results is shown. The share of hits here may be higher or lower than overall.
